# Screens: PubChem BioAssay, several laboratories
# HNF4A DNA FP – change in binding of human HNF4 alpha to DNA; P41235; HNF4a-FITC DNA binding, fluorescence polarization, 1 h; activity change, % at 10 µM; 360,000 compounds, 0.3% hits; in the data active = activity change above about 30%, passing the limit was not always enough;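 note: controls were the assay level and a saturating level of protein; the project sought stronger binding though the title names inhibitors; some compounds called inactive have numbers as strong as hits; positive values seem to mean higher polarization but the record does not say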
# Beta2AR agonist – agonists of human beta-2 adrenergic receptor inducing internalization; P07550; Am2.2-beta2AR cells, FAP receptor internalization, flow cytometry; reference of the scale not given here; response, % (no concentration beside the values); 340,000 compounds, 0.43% hits; AID 504454;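 active = response above a set limit, near 3 SD of response in nonfluorescent compounds, cut at about 42% in these data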;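 note: stock transfer was 100 nL into about 11 µL; a reference agonist was the positive control; negative values mostly stem from fluorescent compounds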
# Target sequence (P07550 whole entry, looked up): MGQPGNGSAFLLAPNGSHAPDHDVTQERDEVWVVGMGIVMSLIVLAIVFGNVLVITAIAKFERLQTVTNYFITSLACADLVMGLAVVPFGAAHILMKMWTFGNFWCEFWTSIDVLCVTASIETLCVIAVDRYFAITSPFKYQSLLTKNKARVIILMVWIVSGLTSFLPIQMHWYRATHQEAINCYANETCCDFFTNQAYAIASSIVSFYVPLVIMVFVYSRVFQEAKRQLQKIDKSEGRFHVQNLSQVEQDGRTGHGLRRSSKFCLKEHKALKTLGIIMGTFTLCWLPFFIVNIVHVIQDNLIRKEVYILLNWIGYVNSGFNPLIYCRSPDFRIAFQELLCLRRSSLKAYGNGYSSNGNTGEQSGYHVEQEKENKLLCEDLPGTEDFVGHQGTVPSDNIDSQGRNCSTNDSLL
# A1 inh – inhibitors of the anti-apoptotic protein A1, read as caspase activation. AID 2462. caspase activation, % (no concentration beside the values). MEF A1-2A-BIM cells, Caspase-Glo 3/7 luminescence, 3 h; percent of clofoctol response, vehicle zero. 330,000 compounds, 0.066% hits;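 active = over half of replicate activation scores above 10%, or exactly half above 10 with the replicate mean above 10; inconclusive = replicate mean below 10 yet half the replicates above 10; inactive = over half of replicates below 10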;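 note: wells of about 30 µL received 50 nL stock; many hits fall short of the cut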
# E coli growth – E. coli growth inhibition. AID 1053175. 330,000 compounds, 0.21% hits. OD600 absorbance (no concentration beside the values). Escherichia coli growth, OD600, 23 h; active compounds read low;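 active = OD600 absorbance below the run mean of sample wells minus 3.6 SD, in any replicate, cut at about 0.56 in these data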;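 note: stock transfer was 300 nL into about 60 µL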
# LANA-H2A inh – blocks KSHV LANA binding to histone H2A/H2B; inhibition, % (test concentration not listed); 320,000 compounds, 0.6% hits; Q9QR71; cell-free LANA-H2A/H2B peptide, fluorescence polarization; in the data active = inhibition mostly above about 10%, no sharp cut-off; inactive = mostly below about 6.7%;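 note: stock transfer was 7.5 nL into about 10 µL; 0% = median of vehicle wells and 100% = median of positive control wells; one replicate is shown; the record names a cut of 25% in any replicate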
# UCH37 inh – inhibitors of human deubiquitinating enzyme UCH37. purified proteasome/UCH37, Ub-AMC cleavage fluorescence. inhibition, % (concentration not given with the values). 330,000 compounds, 0.33% hits. AID 588478;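 active = mean of two replicates above 20%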;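 note: 0% = compound-free wells with enzyme and 100% = wells lacking proteasome; stock transfer was 100 nL into about 20 µL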
# Target sequence (Q9Y5K5 whole entry, looked up): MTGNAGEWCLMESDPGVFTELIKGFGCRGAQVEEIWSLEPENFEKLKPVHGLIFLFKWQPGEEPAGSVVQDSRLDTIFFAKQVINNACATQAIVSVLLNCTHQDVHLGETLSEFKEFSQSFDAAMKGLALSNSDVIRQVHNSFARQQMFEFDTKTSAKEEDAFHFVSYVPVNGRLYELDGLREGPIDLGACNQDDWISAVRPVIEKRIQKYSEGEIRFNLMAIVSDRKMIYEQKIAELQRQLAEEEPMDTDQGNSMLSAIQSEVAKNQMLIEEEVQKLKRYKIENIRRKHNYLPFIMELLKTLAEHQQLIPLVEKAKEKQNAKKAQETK
#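 Reagent: Ub-AMC substrate; assay system: Proteasome-associated human UCH37 deubiquitinase; controls: no-proteasome and no-compound wells; read-out: % inhibition of Ub-AMC cleavage fluorescence; timing: 30 min preincubation with enzyme, 25 min cleavage at room temperature; signal: AMC fluorescence from Ub-AMC cleavage, excitation 355 nm, emission 460 nm; buffer or medium: Tris-HCl pH 7.4 plus ovalbumin, ATP-MgCl2, DTT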
# Vif TR-FRET – inhibitors of Vif binding to APOBEC3G peptide, primary screen, biochemical, TR-FRET, GST-Vif 1-94, biotin-A3G peptide, dose response retest (AID 1117319); TR-FRET GST-Vif / biotin-A3G peptide binding; higher % means a stronger effect; test concentration not given here; strong numbers were not always called active; one-dose inhibition, %; IC50 in µM for titrated hits; 260,000 compounds, 0.57% hits;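 active = above the screen mean plus three standard deviations and confirmed in dose response; inconclusive = results disagree or hit not tested in dose response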;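 note: Vif residues 1-94 fused to GST binding biotinylated APOBEC3G peptide 110-148; 0% = full assay without inhibitor and 100% = GST in place of GST-Vif; retest series ran down from 100 µM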
# * marks the source's active call; other numbers are inactive results; i = inactive; ? = inconclusive; · = no result given; & = joins results of further samples.
# Under each structure – Beta2AR agonist	A1 inh	UCH37 inh	LANA-H2A inh	E coli growth	Vif TR-FRET	HNF4A DNA FP
COc1cc(N2CCOCC2)ccc1/C=C1\C(=O)NC(=O)N(C2CCCCC2)C1=O
  8.3	-2.3	7.0	2.2	0.685	·	-11.4
CC(C)OC(=O)Nc1ccc(N=C(N)N[N+](=O)[O-])cc1
  -1.0	0.3	1.5	-3.6	0.682	·	3.8
Cc1cccc(N2C(=O)NC(=O)/C(=C\c3cccn3-c3ccc(Cl)cc3)C2=O)c1
  13.9	-0.5	0.5	-1.7	0.74	15.3%	-11.4
COc1ccc2[nH]c(C)c(CCNCc3cc(OC)c(OC)c(OC)c3)c2c1
  -5.8	0.4	3.6	-2.0	0.709	8.2%	-2.5
O=[N+]([O-])c1cccc(C2N3CCCN23)c1 (centres undefined)
  7.7	0.1	4.2	-3.1	0.689	-4.4%	1.8
CCN(CC)CCCN=Cc1c(O)n(CCc2ccc(F)cc2)c(=O)[nH]c1=O
  4.4	-0.4	-0.9	1.7	0.724	2.3%	2.8
FC(F)(F)c1ccccc1CN1CCN(Cc2ccccc2)CC1
  -0.7	0.3	5.0	-1.0	0.686	-2.3%	-0.1
Cc1ccc(N2C(=O)NC(=O)/C(=C/c3ccc(OC(=O)c4cccs4)cc3)C2=O)cc1
  5.3	-1.7	8.0	5.6	0.717	5.0%	2.6
COC(=O)C1=C(c2ccc(C(C)=O)cc2)C[C@@H]2CC[C@H]1N2C(=O)NC1CC1
  2.3	1.6	-0.1	-5.3	·	·	1.2
CCN(CC)c1ccc(CN(C)CCc2ccc(OC)c(OC)c2)cc1
  0.2	-0.1	4.2	7.1	0.742	9.7%	4.6
N#Cc1cc2c(nc1SCC(=O)Nc1cc(Cl)cc(Cl)c1)C1CCN2CC1
  -2.3	0.2	4.1	2.7	0.678	-15.7%	1.2
COC(=O)C1=C(c2cccc(OC)c2OC)C[C@@H]2CC[C@H]1N2C(=O)NCCO
  3.8	0.7	3.5	7.2	·	·	1.4
COc1ccc(C[C@@H]2c3cc(O)c(OC)cc3CCN2C)cc1O
  -2.4	2.0	·	-0.3	·	?	-0.6
O=C(Cn1c2c(c(-c3ccccc3Cl)cc1=O)CCC2)N1CCC2(CC1)OCCO2
  1.4	0.3	-3.7	6.2	0.702	0.1%&-0.6%	2.2
CN(C)CCN=Cc1c(O)n(Cc2ccco2)c(=O)[nH]c1=O
  -3.5	0.1	2.3	3.4	0.72	18.6%	2.5

# Quoted from the listing.
# Cc1cccc(N2C(=O)NC(=O)/C(=C\c3cccn3-c3ccc(Cl)cc3)C2=O)c1 in A1 inh shows -0.5
# CC(C)OC(=O)Nc1ccc(N=C(N)N[N+](=O)[O-])cc1 in A1 inh shows 0.3

# Some of these compounds in order of formula weight, rising.
# Under each structure – Beta2AR agonist	A1 inh	UCH37 inh	LANA-H2A inh	E coli growth	Vif TR-FRET	HNF4A DNA FP
CC(C)OC(=O)Nc1ccc(N=C(N)N[N+](=O)[O-])cc1
  -1.0	0.3	1.5	-3.6	0.682	·	3.8
FC(F)(F)c1ccccc1CN1CCN(Cc2ccccc2)CC1
  -0.7	0.3	5.0	-1.0	0.686	-2.3%	-0.1
O=C(Cn1c2c(c(-c3ccccc3Cl)cc1=O)CCC2)N1CCC2(CC1)OCCO2
  1.4	0.3	-3.7	6.2	0.702	0.1%&-0.6%	2.2

# Further compounds follow:
# Under each structure – Beta2AR agonist	A1 inh	UCH37 inh	LANA-H2A inh	E coli growth	Vif TR-FRET	HNF4A DNA FP
Cc1ccc(Cl)cc1-n1c(O)c(C=NCCCN2CCOCC2)c(=O)[nH]c1=O
  -5.4	0.6	1.4	0.2	0.759	-0.5%	-0.6
O=C1C(=O)N(Cc2cccnc2)C(c2cccc(O)c2)/C1=C(\O)c1ccc2c(c1)OCCO2 (centres undefined)
  3.3	-0.2	12.6	10.6	0.677	·	8.6
Clc1ccc2c(c1)C(c1ccccc1Cl)=NCc1nncn1-2
  -10.4	1.0	0.9	-2.8	0.661	11.6%	0.5
CCOP(=O)(OCC)Oc1cc(C)c(N(C)C)c(C)c1
  2.9	0.6	2.3	-1.2	0.651	3.7%	-0.5
Cc1[nH]c2ccc(OC(F)(F)F)cc2c1CCNCc1ccc(Cl)cc1
  23.8	2.4	3.0	7.8	0.502*	5.7%	5.6
O=C(COc1ccccc1C(=O)Nc1ccccc1)NCCc1ccccc1
  4.8	0.4	0.6	2.7	0.704	-7.5%	-0.1
COc1cccc(C2/C(=C(/O)c3ccc4c(c3)OCO4)C(=O)C(=O)N2CCN2CCOCC2)c1 (centres undefined)
  -7.6	1.1	12.1	-0.8	0.656	-5.5%	-2.2
COc1ccc2c(c1)c(CCN)c(C)n2Cc1ccccc1
  2.6	1.8	2.4	-5.7	0.616	-3.1%	8.0
COc1cc2c(cc1OC)-c1c3c(cc4c1[C@@H](C2)N(C)CC4)OCO3
  3.2	2.4	-0.7	10.6	·	2.1%	3.8
O=C(c1csc2c1CCCCC2)N1CCC2(CC1)OCCO2
  -26.1	0.9	1.6	1.8	0.669	4.1%	1.9
COc1cccc(CNCCc2cccc(F)c2)c1OC
  -6.5	0.9	-0.8	14.7	0.664	·	0.2
O=C(NCc1ccc(C(=O)N2CCC3(CC2)OCCO3)cc1)c1cccc(Br)c1
  -9.1	0.6	0.5	2.6	0.689	21.8%	0.6
CCN1C[C@]2(COC)CC[C@H](O)[C@@]34C5C[C@H]6[C@H](O)C5[C@](O)(C[C@H]6OC)[C@@H]([C@H](OC)C23)[C@@H]14 (some centres undefined)
  ·	-0.1	-7.2	-5.4	0.745	·	-1.4
Cc1cccc(N/N=C/c2c(O)[nH]c(=S)[nH]c2=O)c1
  3.6	-10.2	·	4.8	·	·	-3.6
O=C(c1ccc(Br)cc1)C12CN3CN(CN(C3)C1)C2
  -6.0	0.7	1.5	25.0	0.712	1.0%	-0.4
COc1cccc(C2(O)CCN(Cc3ccncc3)CC2)c1
  3.3	-0.2	3.0	-4.1	0.708	17.3%	-2.4
CN1CCC(c2c[nH]c3ccccc23)C1 (centres undefined)
  -8.6	0.2	·	-2.4	·	?	6.4
CCOC(=O)C1C(=O)NC2(C)CC1c1cc(OC)ccc1O2 (centres undefined)
  3.0	-0.2	-1.7	1.4	0.632	19.7%	9.2
O=C(CCN1CCOCC1)NCC(=O)Nc1ccc(Br)cc1C(=O)c1ccccc1
  -13.6	0.1	-1.3	-1.5	0.751	>100µM*	5.7
C[C@@H]1C[C@@H]([C@H](O)CC2CC(=O)NC(=O)C2)C(=O)[C@@H](C)C1
  11.5	3.0	·	i	·	·	2.7
COc1ccc(NC(=S)NC(NC(=O)CF)C(Cl)(Cl)Cl)c([N+](=O)[O-])c1 (centres undefined)
  -1.7	-0.6	-1.6	-1.6	0.68	32.7%	-0.1
CCN1C[C@@]2(COC)C3[C@@H](OC)[C@H]4[C@@H]1[C@@]3(C1C[C@H]3[C@H](OC(=O)c5ccccc5)C1[C@]4(OC(C)=O)C[C@H]3OC)[C@@H](OC)C[C@H]2O (some centres undefined)
  ·	0.6	1.3	-2.7	0.682	·	-4.7
CN(C)C(=O)Oc1c(Cl)cc(Cl)c2ccccc12
  5.3	-0.9	2.0	2.7	0.736	1.5%	-0.5
Cc1cc(N(CCCl)CCCl)ccc1/C=N/NC(=O)c1ccco1
  7.2	-0.9	·	-5.1	·	?	2.1
O=[N+]([O-])c1ccc(N2CCCC2)c2ccncc12
  -6.4	0.1	13.7	1.7	0.671	-2.9%	22.6
Cc1c(N=Cc2c(O)n(Cc3ccccc3)c(=O)[nH]c2=O)c(=O)n(-c2ccccc2)n1C
  -1.8	0.1	8.9	-3.7	0.734	8.9%	0.4
CSc1ccc(C(=O)C2CCCN(Cc3cc4ccccc4[nH]3)C2)cc1 (centres undefined)
  2.7	0.0	3.5	-1.2	0.562	5.0%	-0.2
Cc1nn(Cc2ccccc2Cl)c(C)c1C(=O)OCC(=O)NC1CCCC(C)C1C (centres undefined)
  -1.5	0.0	2.0	-5.2	0.691	-3.2%	5.9
COC(=O)CC1(CC(=O)OC)C(=O)N(c2ccccc2)C(=O)N(c2ccccc2)C1=O
  12.8	0.9	1.1	-3.0	0.642	-0.8%	2.4
CCN1CCN(c2ncnc3ccc(Br)cc23)CC1
  1.3	0.3	5.8	-1.7	0.695	-1.6%	-0.6

# Whole records as entered above. Screens in order: Beta2AR agonist | A1 inh | UCH37 inh | LANA-H2A inh | E coli growth | Vif TR-FRET | HNF4A DNA FP
# CN1CCC(c2c[nH]c3ccccc23)C1 (centres undefined) in the list: -8.6 | 0.2 | · | -2.4 | · | ? | 6.4
# CSc1ccc(C(=O)C2CCCN(Cc3cc4ccccc4[nH]3)C2)cc1 (centres undefined) in the list: 2.7 | 0.0 | 3.5 | -1.2 | 0.562 | 5.0% | -0.2

# Following part.
# Under each structure – Beta2AR agonist	A1 inh	UCH37 inh	LANA-H2A inh	E coli growth	Vif TR-FRET	HNF4A DNA FP
O=c1cccc2n1CC1CC2CN(Cc2c(F)cccc2Cl)C1 (centres undefined)
  2.6	0.7	-0.1	6.2	0.665	5.1%	3.7
CC(C)C(=O)N1CCN(c2ccc(NC(=O)c3ccc4c(c3)OCCO4)cc2Cl)CC1
  37.6	0.0	1.1	-2.0	0.732	0.8%	-0.2
CC(C)n1c(O)c(C=NCc2ccccc2)c(=O)[nH]c1=S
  -2.7	0.3	5.6	-2.0	0.634	-5.0%	-2.0
COC(=O)C1=C(c2ccccc2OCc2ccccc2)C[C@@H]2CC[C@H]1N2C(=O)NCc1cccc(C(F)(F)F)c1
  1.1	0.7	2.0	-4.3	·	·	1.6
CCC(=O)c1cn(Cc2ccccc2C#N)c2ccccc12
  -5.0	-0.2	5.7	0.3	0.656	-1.8%	1.6
COC(=O)C1=C(c2ccc(F)cc2OCc2ccccc2)C[C@@H]2CC[C@H]1N2C(=O)NCCCc1ccccc1
  3.6	-0.4	0.8	0.8	·	·	-0.6
CN(C)C(=O)Oc1ccc([N+](=O)[O-])cc1
  6.3	1.0	0.5	-0.9	0.655	20.9%	-3.0
COc1cc(C[C@@H](C)N)c(OC)cc1I
  7.6	-0.7	1.9	-3.3	·	-2.3%	3.8
COc1ccccc1-n1c(-c2ccoc2)nc2ccccc2c1=O
  -2.4	-0.8	4.8	-8.5	0.772	29.3%	-2.3
O=C(c1cnn2c(C(F)(F)F)cc(-c3ccccc3)nc12)N1CCC2(CC1)OCCO2
  -4.6	0.6	-13.9	-2.7	0.731	-2.9%	-0.9
O=C1CN(O)C(c2ccccc2)=c2cc(Br)ccc2=N1
  -9.2	0.6	1.7	-6.9	0.726	·	4.2
CCOc1ccc(NC(=O)CCNC(=O)N2C[C@H]3C[C@@H](C2)c2cccc(=O)n2C3)cc1
  1.0	-0.7	1.2	2.3	0.77	·	1.0
Cc1cc(OCc2cc(C(=O)O)oc2C)c2c3c(c(=O)oc2c1)CCCC3
  31.9	0.3	-163.2	4.8	0.694	3.1%	-1.0
COc1ccc2c(c1OC)C(=O)OC2c1c(O)n(Cc2ccc(F)cc2)c(=O)[nH]c1=O (centres undefined)
  -5.8	·	1.2	·	0.702	?	-1.5
CNCC(C)c1ccccc1 (centres undefined)
  0.4	0.6	·	1.5	·	10.5%	-1.3
CC1(C)CSC(Nc2ccc(F)c(Cl)c2)=N1
  0.2	-0.7	1.0	4.0	0.673	0.4%	-0.1

# Only part of the results is shown (hit frequency here may not be typical).
